VDR inh = blocks the human vitamin D receptor | P11473 | VDR-SRC2-3 peptide fluorescence polarization, 2 h | Potency, µM, for inactives: max response, negative = inhibition, usual class: inhibitors | actives 0.93% (n = 400,000) | AID 504847; active = well fitted inhibition curve with a large enough effect; inconclusive = small, poorly fitted or top-dose-only effect, or another doubt; inactive = no such curve, though single readings can be large or run the other way; also: series mostly up to about 120 µM
Target sequence (P11473 whole entry, looked up): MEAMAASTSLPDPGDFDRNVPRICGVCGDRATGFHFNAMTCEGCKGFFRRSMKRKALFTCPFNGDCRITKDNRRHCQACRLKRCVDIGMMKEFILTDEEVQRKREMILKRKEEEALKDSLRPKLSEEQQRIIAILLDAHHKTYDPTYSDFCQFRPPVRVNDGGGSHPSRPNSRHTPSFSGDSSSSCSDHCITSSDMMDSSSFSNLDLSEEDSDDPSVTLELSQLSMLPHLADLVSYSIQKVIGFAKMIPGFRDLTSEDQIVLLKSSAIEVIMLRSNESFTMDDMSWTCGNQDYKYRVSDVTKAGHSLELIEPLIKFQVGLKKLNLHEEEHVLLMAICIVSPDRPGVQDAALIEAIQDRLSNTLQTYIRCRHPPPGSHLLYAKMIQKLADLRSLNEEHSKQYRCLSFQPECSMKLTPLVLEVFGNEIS
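Inhibition of the VDR/SRC2-3 peptide interaction is quantified by fluorescence polarization. Compounds (23 nl, pintool) incubate with the reagents for 2 hours at ambient room temperature.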
* hit, by the source's call; ? = inconclusive; & = joins results of further samples. % is scaled to controls: 0 for no effect and ±100 for the full control effect; potency is read from the fitted curve at half-maximal effect. An excerpt; the hit share may differ from the screen's.

SMILES	VDR inh
COC(=O)C1=C(CSc2nc3c(cc2C#N)CN(C)CC3)OC(N)=C(C#N)C1c1ccccc1F (stereo not given)	10%
CC(=O)N(CCCN(C)C)c1nc2ccc(C)cc2s1	-12%
Cc1nn(C)c(C)c1S(=O)(=O)N1CCCC(C(=O)N2CCN(c3ccc(Cl)cc3)CC2)C1 (stereo not given)	-18%
C/C(=N\O)C(C)(C)NC(=O)Nc1ccc(Cl)cc1	0%
C[C@H](NS(=O)(=O)c1c(Cl)cccc1Cl)C(=O)NNC(=O)COc1ccccc1F	6%
COc1cccc(/C=N/NC(=O)c2ccc(-n3cnnn3)cc2)c1	-12%
CCc1nnc(NC(=O)c2cc(C)oc2C)s1	0%
CCc1nnc(NS(=O)(=O)c2ccc(NS(=O)(=O)c3ccccc3)cc2)s1	-1%
CCOc1cc(C(c2c(O)nc(SC)[nH]c2=O)c2c(O)nc(SC)[nH]c2=O)ccc1O	?
CCOC(=O)c1sc(NS(=O)(=O)c2ccc(F)cc2)nc1C	1%
Cc1onc(-c2ccccc2)c1C(=O)N(Cc1ccccn1)Cc1ccccn1	1%
Cc1ccc(C)c(N(C)S(=O)(=O)c2ccc3[nH]cc(C(=O)NC4CCCC4)c(=O)c3c2)c1	18%
COc1cccc(C=NNC(=S)NN=Cc2cccc(OC)c2OC)c1OC	-28%
Cc1cccc(-n2c(C)nc3cc(C(=O)NC4CCCCCC4)ccc32)c1	0%
CCO/N=C(\C)c1c(O)c2ccccc2n(C)c1=O	-1%
CCOc1ccc(-c2cnc(SCC(N)=O)nc2N)cc1	6%
O=C(NCc1ccccc1)N1CCCC1	-4%
CCC(=O)Oc1ccc2c(c1)O/C(=C\c1ccco1)C2=O	-21%
O=C(CN1C(=O)NC2(CCCC2)C1=O)OCCOc1ccc(Cl)cc1	-14%
O=C(O)Cn1nc(C(F)(F)F)c2c1CCC2	21%
CN(Cc1ccccc1)c1nc2c(c(=O)n(C)c(=O)n2C)n1CCSc1ncccn1	-12%
Cc1nc(SCC(=O)N2CCN(c3ccccc3)CC2)[nH]c(=O)c1C	6%
COc1cc2c(cc1O)CCC1C2CC[C@@]2(C)C1CC[C@@H]2O (stereo not given in full)	-7%
CC1CCCCN1S(=O)(=O)c1ccc(F)c(C(=O)Nc2ccccc2C(F)(F)F)c1 (stereo not given)	3%
Cc1ccn2c(C(=O)CSc3ccccc3Cl)c(C)nc2c1	10%
Further compounds follow:
SMILES	VDR inh
Cc1ccccc1C(=O)NNC(=O)c1cccc(Br)c1	?
Nn1c(SCC(=O)Nc2ccc(F)cc2F)nnc1C1CCCCC1	-15%
COC(=O)c1ccc(Cn2c(SCc3ccccc3F)nc3ccncc32)cc1	19%
CCC(=O)N1CCc2cc(Br)cc(S(=O)(=O)NCCc3ccccc3)c21	-10%
CCOCCn1cnc2sc(C(=O)NCC(=O)OCC)c(C)c2c1=O	9%
CCOc1ccc(C(=O)c2oc3ccccc3c2NC(=O)c2cc(=O)c3ccc(C)cc3o2)cc1	-3%
CCOC(=O)N1CCN(C(=O)c2ccc3c(=O)n(-c4ccc(F)cc4)c(=S)[nH]c3c2)CC1	-1%
CCOC(=O)c1[nH]c(C)c(C(=O)OC(C)C(=O)Nc2ncc(Cl)cc2Cl)c1C (stereo not given)	7%
Cc1cccc(N2CC34C=CC(O3)C(C(=O)O)C4C2=O)c1 (stereo not given)	-7%
O=c1cccccc1NCc1ccccc1	10%
COc1ccc(NS(=O)(=O)c2ccc(N3CCOCC3)c(NC(=O)c3ccco3)c2)cc1	-17%
O=C(COC(=O)c1cc(=O)c2ccccc2o1)Nc1c(F)c(F)c(F)c(F)c1F	-9%
Cc1cc(NC(=O)C23CC4CC(CC(C4)C2)C3)n[nH]1	5%
C/C(=N/NC(=O)c1sc(NS(=O)(=O)c2ccccc2)nc1C)c1sc(N)nc1C	-2%
Cn1cccc1/C=N/N1CCN(Cc2cccc3ccccc23)CC1	-2%
Cc1ccc(-c2cccc(C3CC=CC4C3C(=O)N(Cc3ccccc3)C4c3ccc4ccccc4c3)c2)cc1 (stereo not given)	-15%&-6%
COC(=O)CN1C(=O)C2(C(C#N)=C(N)Oc3c2c(C)nn3-c2ccccc2)c2ccccc21 (stereo not given)	6%
COc1ccc(/C=C(\C#N)c2nc(-c3cc(Cl)ccc3OC)cs2)cc1	-4%
O=C(COc1ccc(S(=O)(=O)NC2CCCCC2)cc1)Nc1ccc2c(c1)OCCO2	0%
COC(=O)[C@H](Cc1ccccc1)NC(=O)NCCc1ccc(OC)cc1	13%
CCc1ccc(NS(=O)(=O)c2[nH]ncc2C(=O)OC)cc1	-7%
CCc1ccc(C(=O)CSc2nc3cc(S(=O)(=O)N4CCOCC4)ccc3n2CC)cc1	-3%
COc1ccc(S(=O)(=O)N2CCOC2CNC(=O)C(=O)NCc2ccccn2)cc1C (stereo not given)	-5%
O=C(NC1CCCCCC1)C1CCCN1S(=O)(=O)c1cccc2cccnc12 (stereo not given)	?
Cc1sc(NC(=O)c2ccco2)nc1-c1ccc2c(c1)CC(C)N2C(=O)C1CC1 (stereo not given)	4%

At a glance, 3 of the compounds above.
SMILES	VDR inh
CCOCCn1cnc2sc(C(=O)NCC(=O)OCC)c(C)c2c1=O	9%
CCOc1ccc(C(=O)c2oc3ccccc3c2NC(=O)c2cc(=O)c3ccc(C)cc3o2)cc1	-3%
CCOC(=O)N1CCN(C(=O)c2ccc3c(=O)n(-c4ccc(F)cc4)c(=S)[nH]c3c2)CC1	-1%

(next part)
SMILES	VDR inh
CCOc1ccc(-c2nn3c(-c4ccccc4)nnc3s2)cc1	-18%
S=C(NCC1CCCO1)n1nnc2ccccc21 (stereo not given)	13%
COc1ccc(/C=C\C(=O)NC2CC(=O)N(c3ccc(F)cc3)C2)cc1OC (stereo not given)	-1%
CCN(CC(=O)NCc1ccc(Cl)cc1)C(=O)c1c(C)noc1C	0%
O=C(NCC(=O)N1CCCCCC1)c1ccc(Cl)cc1	?
COc1ccccc1NC(=O)C1CCN(S(=O)(=O)c2cccc3nonc23)CC1	3%
CCCC(=O)Nc1ccc2c(c1)nc(CN1CCN(C(=O)OCC)CC1)n2C	25%
Cc1cc(C)c(-n2[nH]nnc2=S)c(C)c1	-22%
Cc1ccc(Cl)cc1NC(=O)C1CCC(CNS(=O)(=O)c2cccc3nsnc23)CC1 (stereo not given)	-9%
Cc1cc(C)nc(N/N=C/c2c(C)oc3ccccc23)n1	0%
COc1cc(CCC(=O)OCc2nnc(-c3ccccc3)o2)cc(OC)c1OC	-15%
COCCN(C(=O)CSc1nn(-c2ccc(F)cc2)c(=S)s1)c1c(N)n(CC(C)C)c(=O)[nH]c1=O	1%
CC(C)(C)C(=O)Nc1ccccc1-c1nc2ccccc2[nH]c1=O	-4%
Cc1nn(CC(=O)Nc2ccccc2F)c(=O)c2c(C)n(-c3ccc(Cl)cc3)nc12	3%
COC(=O)C1NN=C(C(=O)c2ccc(Cl)cc2)C1c1ccc(OC)cc1 (stereo not given)	-14%
CC1CCN(C(=O)Cn2cc(SCC(=O)NCc3ccccc3Cl)c3ccccc32)CC1	13%
CCOC(=O)c1ccc(NC(=O)Cc2noc3ccc(C)cc23)cc1	0%
Cc1noc(C)c1C(=O)N1CCC2(CC1)CN(C(=O)Nc1cccc(F)c1)C2	-13%
CCc1c(C)nc(SCC(=O)N2CCCCC2)[nH]c1=O	3%
COc1ccc(CC(=O)Nc2nncs2)cc1OC	3%
COc1ccc(NC(=O)Cn2nnc(C(=O)NCc3ccc4c(c3)OCO4)c2N)c(OC)c1	-29%
Cc1ccc2[nH]c(C(=O)N3CCCC(Nc4ccc(F)cc4)C3)cc2c1 (stereo not given)	-10%
Cc1cc(Nc2ccccc2)n(CCO)n1	-9%
O=C(c1cc2ccccc2o1)c1cccs1	-9%
COC(=O)CCC1(C(N)=O)CCC(=O)c2ccccc21 (stereo not given)	-14%
(next part)
SMILES	VDR inh
CCCCCOC(=O)c1c(N)n(CCOC)c2nc3ccccc3nc12	0%
c1ccc(CNc2ncnc3ccc(-c4ccoc4)cc23)cc1	25µM*
Cn1nnnc1SCC(=O)c1ccc2c(c1)OCCO2	5%
CCCc1cnc2c(c1SCC(=O)N1CCC(C)CC1)c(=O)n(C)c(=O)n2C	13%
CCCCOc1nc(N)nc(-c2ccccc2)n1	-4%
CN(Cc1ccccc1OCCO)CC1CCCN(CCc2ccc(Cl)cc2)C1 (stereo not given)	2%
CN(Cc1ccon1)C(=O)C1CCN(C2CCN(CCCc3ccccc3)CC2)CC1	-2%
CC(O)(c1cccs1)C(C(=O)O)c1ccccc1 (stereo not given)	-11%
O=C(CCNC(=O)c1ccc([N+](=O)[O-])cc1)NCC1COc2ccccc2O1 (stereo not given)	-2%
CCC1CCCCN1CCCNC(=O)CC1Oc2ccccc2NC1=O (stereo not given)	-13%
C#CCNC(=O)C1=C[C@@H](C)[C@H](CCCO)[C@@H](OCC)O1	-21%
Cc1cc(OC(C)C(=O)NCC2CCC(C(=O)O)CC2)c2c(C)c(Cc3ccccc3)c(=O)oc2c1 (stereo not given)	-13%
Cc1ccc(Cn2c(=O)n(Cc3ccccc3)c(=O)c3oc4ccccc4c32)cc1	9%
C=CCn1c(=O)c(C(=O)OCC)c(O)c2ccccc21	-21%
Cc1cccc(C2c3c(n(C)c(=O)n(C)c3=O)N=C3c4ccccc4C(=O)C32)c1 (stereo not given)	1%
CC(C)c1ccc(Nc2c(-c3ccc(N4CCOCC4)cc3)nc3ncccn23)cc1	0%
COc1cccc(/C=N/Nc2cc(N3CCOCC3)ncn2)c1O	15%
Cn1nc(C(=O)N2CCC(C(N)=O)CC2)c2c1-c1ccccc1SC2	-1%
COC(=O)c1cccnc1N1CCN(c2ccccc2F)CC1	-2%
O=P(c1ccccc1)(c1ccccc1)N(c1ccccc1)c1ccccc1	-2%
CC(=O)c1nc(N2C(=O)CC(Cc3ccccc3)C2=O)sc1C (stereo not given)	10%
CCC1Oc2ccccc2N(CC(=O)NCCN2CCc3ccccc3C2)C1=O (stereo not given)	7%
CCOCCCNC(=S)NCCc1ccccc1	7%
COc1ccc(SC[C@H](C)CN2CC[C@H](C)CCC2=O)cc1	-21%
CC(C)CCNC(=O)c1cnc2sc(N3CCCCC3)nn2c1=O	6%
The results go on.
SMILES	VDR inh
C/C=C(\C)C(=O)N1CCC(C(=O)c2ccccc2)CC1	19%
Cc1cc(O)c(NC(=O)c2ccc(C)c([N+](=O)[O-])c2)cc1C	8%
c1ccc(-c2oc3ncnc(NCCN4CCOCC4)c3c2-c2ccccc2)cc1	-10%
COc1cccc(NC(=O)CCc2nc(-c3cc(OC)c(OC)c(OC)c3)no2)c1	8%
CN1C(=O)c2ccc(NC(=O)c3cccc(N4C(=O)CCC4=O)c3)cc2C1=O	-12%
O=C(CN1C(=O)C2C3CCC(C3)C2C1=O)NCc1ccco1 (stereo not given)	-10%
CCOc1ccc(N(c2nc(-c3ccc(OC)c(OC)c3)no2)c2nc(-c3ccc(OC)c(OC)c3)no2)cc1	-3%
COc1cc(CN2CCC(n3nccc3NC(=O)CCCc3ccccc3)CC2)ccc1O	-7%
O=S(=O)(NCC(c1ccccc1)N1CCc2ccccc21)c1ccccc1 (stereo not given)	2%
CC(CCc1ccccc1)NC(=O)CSc1nc(N)cc(N)n1 (stereo not given)	0%
O=[N+]([O-])c1cccc(-c2nnc(C3CC3)o2)c1	-4%
Cc1ccccc1C(=O)O/N=C(\N)Cc1cccs1	2%
COc1cc(NC(=O)N2CCOCC2)cc(OC)c1	5%
COc1ccccc1-n1nnnc1SCC(=O)NC1CCCC1	-7%
COC(=O)CNC(c1ccccc1)c1cc(C)ccc1NS(=O)(=O)c1ccc(C)cc1 (stereo not given)	-2%
Cc1cc(C(=O)C[N+]2(C)CCOCC2)c(C)n1-c1ccc(Br)cc1	8%
CCOC(=O)c1ccc(NC(=S)N2CCC(C(N)=O)(N3CCCCC3)CC2)cc1	-22%
CCN(CC(=O)Nc1c(F)cccc1F)C(=O)c1ccc(=O)n(C)n1	5%
CNC(=O)C1C(=S)NC(N)=C(C#N)C1c1ccccc1 (stereo not given)	20µM*
O=C(CN1C(=O)c2ccccc2C1=O)Nc1ccc(-c2nc3ccccc3o2)cc1	7%
CC1=C/C(=N\Nc2ccccc2[N+](=O)[O-])CC(C)(C)C1	-13%
Cc1ccc(COc2ccc(-c3nnco3)cc2)cc1	-15%
Cc1cc(Nc2cccc(C(F)(F)F)c2)nc2ccc(NC(=O)c3ccc(N(C)C)cc3)cc12	2%
COc1ccc(/C=N/NC(=O)c2ccc(C)cc2)cc1CN1CCN(c2ccc(F)cc2)CC1	-11%
COc1ccc(OC)c(C(=O)NC(CC(N)=O)c2ccc(N3CCC(N4CCCC4)CC3)c([N+](=O)[O-])c2)c1 (stereo not given)	-14%
CCCCn1c(=O)n(-c2cc(OC)ccc2OC)c(=O)c2c3c(sc21)CN(C(C)=O)CC3	-12%

Filtered by structure, the entries above with a COOH group (4)
SMILES	VDR inh
O=C(O)Cn1nc(C(F)(F)F)c2c1CCC2	21%
Cc1cccc(N2CC34C=CC(O3)C(C(=O)O)C4C2=O)c1 (stereo not given)	-7%
CC(O)(c1cccs1)C(C(=O)O)c1ccccc1 (stereo not given)	-11%
Cc1cc(OC(C)C(=O)NCC2CCC(C(=O)O)CC2)c2c(C)c(Cc3ccccc3)c(=O)oc2c1 (stereo not given)	-13%

Some of the entries so far, in markdown.
| canonical_smiles | VDR inh |
| --- | --- |
| COc1cccc(/C=N/NC(=O)c2ccc(-n3cnnn3)cc2)c1 | -12% |
| CCc1nnc(NC(=O)c2cc(C)oc2C)s1 | 0% |
| CCc1nnc(NS(=O)(=O)c2ccc(NS(=O)(=O)c3ccccc3)cc2)s1 | -1% |
| CCOc1cc(C(c2c(O)nc(SC)[nH]c2=O)c2c(O)nc(SC)[nH]c2=O)ccc1O | ? |
| CCOC(=O)c1sc(NS(=O)(=O)c2ccc(F)cc2)nc1C | 1% |

Source: PubChem (National Center for Advancing Translational Sciences (NCATS))
